From PubChem
Vaccinia stage – blocks a specific stage of Vaccinia orthopoxvirus infection; activity change (mCherry), % (test concentration not listed); 0.01% of 89,000 active; AID 1053133; Vaccinia-infected cells, mCherry/Venus stage reporter fluorescence; hits give low values; some inactives read as strong as hits;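 active means mCherry past -33% and 40 or more points under the early reporter, replicates agreeing; inconclusive means past -33% without that gap or agreement; tested in A549 cells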;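 further: scaled between vehicle wells and reference inhibitor wells; 23 nL library stock went into each well; one replicate is shown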
Vaccinia stage Venus – second read-out of Vaccinia stage, no call of its own (marks repeat the call); activity change (Venus), %; measured here: Venus reporter, other viral stage;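 negative = less Venus signal; first of two replicates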
Numbers without * were called inactive. Not all compounds are listed (hit frequency here may not be typical).

The first 6 records, to show the layout:
O=C(C[C@@H]1CC[C@@H]2[C@H](COC[C@@H](O)CN2C(=O)c2ccccc2F)O1)NCc1ccc(Cl)cc1 was read as Vaccinia stage 0.8 and Vaccinia stage Venus -0.5.
CCCNC(=O)N1[C@H](C#N)[C@@H](c2ccc(-c3ccc(C(=O)N(C)C)cc3)cc2)[C@@H]1CO was read as Vaccinia stage 3.4 and Vaccinia stage Venus -12.5.
Screening COc1cccc(-c2ccccc2[C@@H]2[C@@H](C#N)N(C(=O)Cc3ccccc3)[C@H]2CO)c1 returned Vaccinia stage -10.3 and Vaccinia stage Venus -9.6.
Screening CC(C)NC(=O)N1[C@H](C#N)[C@H](c2ccc(C#CC3CCCC3)cc2)[C@H]1CO returned Vaccinia stage -24.7 and Vaccinia stage Venus -5.3.
C[C@H](CO)N1C[C@H](C)[C@H](CN(C)C)Oc2cc(C#CCN(C)C)ccc2S1(=O)=O was read as Vaccinia stage 20.8 and Vaccinia stage Venus 8.7.
CO[C@H]1CN(C)C(=O)c2cc(NC(=O)C3CCCCC3)ccc2OC[C@H](C)N(C(=O)c2ccccc2)C[C@H]1C was read as Vaccinia stage 3.1 and Vaccinia stage Venus 0.1.

The whole of this part, repeating the preview:
O=C(C[C@@H]1CC[C@@H]2[C@H](COC[C@@H](O)CN2C(=O)c2ccccc2F)O1)NCc1ccc(Cl)cc1 was read as Vaccinia stage 0.8 and Vaccinia stage Venus -0.5.
CCCNC(=O)N1[C@H](C#N)[C@@H](c2ccc(-c3ccc(C(=O)N(C)C)cc3)cc2)[C@@H]1CO was read as Vaccinia stage 3.4 and Vaccinia stage Venus -12.5.
Screening COc1cccc(-c2ccccc2[C@@H]2[C@@H](C#N)N(C(=O)Cc3ccccc3)[C@H]2CO)c1 returned Vaccinia stage -10.3 and Vaccinia stage Venus -9.6.
Screening CC(C)NC(=O)N1[C@H](C#N)[C@H](c2ccc(C#CC3CCCC3)cc2)[C@H]1CO returned Vaccinia stage -24.7 and Vaccinia stage Venus -5.3.
C[C@H](CO)N1C[C@H](C)[C@H](CN(C)C)Oc2cc(C#CCN(C)C)ccc2S1(=O)=O was read as Vaccinia stage 20.8 and Vaccinia stage Venus 8.7.
CO[C@H]1CN(C)C(=O)c2cc(NC(=O)C3CCCCC3)ccc2OC[C@H](C)N(C(=O)c2ccccc2)C[C@H]1C was read as Vaccinia stage 3.1 and Vaccinia stage Venus 0.1.
`CN(C)CCCNC(=O)C[C@H]1CC[C@@H](NS(=O)(=O)c2ccc(F)cc2)[C@@H](CO)O1` gave Vaccinia stage 3.8 and Vaccinia stage Venus 5.8.
For CCC(=O)Nc1ccc2c(c1)OC[C@H](C)N(C(=O)CN1CCOCC1)C[C@@H](C)[C@H](OC)CN(C)C2=O the results were Vaccinia stage -6.7 and Vaccinia stage Venus -7.9.
Screening CO[C@@H]1CC[C@H]2CCOc3ccc(C#N)cc3C(=O)N(C)[C@H](C)C(=O)N(C)C[C@@H]1O2 returned Vaccinia stage 1.0 and Vaccinia stage Venus -8.0.
`Cc1cccc(S(=O)(=O)N[C@H]2CC[C@H](CCNC(=O)CCN3CCCCC3)O[C@H]2CO)c1` gave Vaccinia stage -20.3 and Vaccinia stage Venus -9.7.
For C[C@H]1CN([C@@H](C)CO)C(=O)c2cc(NC(=O)Nc3cccc4ccccc34)ccc2O[C@@H]1CN(C)C(=O)Nc1ccc(F)cc1 the results were Vaccinia stage 20.6 and Vaccinia stage Venus 11.3.
O=C(C[C@@H]1C=C[C@@H](NS(=O)(=O)c2ccc(F)cc2)[C@H](CO)O1)NC1CCC1 was read as Vaccinia stage -6.3 and Vaccinia stage Venus -3.8.
For Cc1ccccc1-c1ccc([C@@H]2[C@@H](CO)N3C(=O)CN(C(=O)c4ccncc4)C[C@H]23)cc1 the results were Vaccinia stage 2.3 and Vaccinia stage Venus -0.4.
`O=C(N[C@@H]1CC[C@@H](CCNS(=O)(=O)Cc2ccccc2)O[C@@H]1CO)c1cnccn1` gave Vaccinia stage -5.0 and Vaccinia stage Venus -0.1.
Screening Cn1cnc(S(=O)(=O)N[C@H]2CC[C@H](CC(=O)NCC3CCCCC3)O[C@H]2CO)c1 returned Vaccinia stage 8.1 and Vaccinia stage Venus 7.6.
C[C@H]1CCCCO[C@H](CN(C)C(=O)CCC(F)(F)F)[C@@H](C)CN([C@@H](C)CO)C(=O)c2cc(NC(=O)Nc3ccccc3)ccc2O1 was read as Vaccinia stage inconclusive.
Screening C[C@H](CO)N1C[C@H](C)[C@@H](CN(C)C(=O)Nc2ccccc2F)Oc2cc(C#CCN(C)C)ccc2S1(=O)=O returned Vaccinia stage -11.4 and Vaccinia stage Venus 3.9.
`O=C(C1CC1)N1CC(=O)N2[C@H](CO)[C@H](c3ccc(C4=CCCCC4)cc3)[C@@H]2C1` gave Vaccinia stage 2.6 and Vaccinia stage Venus 1.4.
Screening COc1ccc2c3c([nH]c2c1)[C@@H](CO)N(C(=O)C1CCC1)CC31CN(Cc2cccc(F)c2)C1 returned Vaccinia stage inconclusive.
Screening Cc1noc(C)c1S(=O)(=O)Nc1ccc2c(c1)C(=O)N([C@@H](C)CO)C[C@H](C)[C@@H](CN(C)Cc1ccncc1)O2 returned Vaccinia stage 13.5 and Vaccinia stage Venus 15.4.
For C[C@@H]1CN([C@H](C)CO)C(=O)c2cc(NC(=O)CCC(F)(F)F)ccc2O[C@H]1CN(C)Cc1ccncc1 the results were Vaccinia stage -7.7 and Vaccinia stage Venus -10.9.
COc1ccc(S(=O)(=O)Nc2cccc3c2O[C@@H](CN(C)CC2CC2)[C@@H](C)CN([C@@H](C)CO)C3=O)cc1 was read as Vaccinia stage 7.7 and Vaccinia stage Venus 5.3.
Screening C[C@@H]1CN([C@@H](C)CO)S(=O)(=O)c2ccc(-c3cncnc3)cc2O[C@H]1CN(C)C(=O)Cc1ccncc1 returned Vaccinia stage 9.3 and Vaccinia stage Venus 7.5.
CO[C@@H]1CN(C)C(=O)c2ccc(NC(=O)Nc3ccc(F)cc3)cc2OC[C@@H](C)N(C(=O)c2cnccn2)C[C@H]1C was read as Vaccinia stage 4.8 and Vaccinia stage Venus 7.6.
For C[C@H](CO)N1C[C@H](C)[C@@H](CN(C)CC2CCCC2)Oc2cc(C#CC(C)(C)O)ccc2S1(=O)=O the results were Vaccinia stage -3.7 and Vaccinia stage Venus -14.0.
`Cc1noc(C)c1S(=O)(=O)N(C)C[C@H]1OCCCC[C@H](C)Oc2ccc(NC(=O)C3CCCCC3)cc2C(=O)N([C@@H](C)CO)C[C@@H]1C` gave Vaccinia stage inconclusive.
C[C@H](CO)N1C[C@H](C)[C@H](CN(C)C(=O)C2CCCCC2)Oc2ncc(-c3ccccc3F)cc2C1=O was read as Vaccinia stage 21.0 and Vaccinia stage Venus 11.5.
For CCCNC(=O)N(C)C[C@H]1Oc2ncc(C#Cc3ccncc3)cc2C(=O)N([C@@H](C)CO)C[C@@H]1C the results were Vaccinia stage 22.6 and Vaccinia stage Venus 8.5.
For Cc1noc(C)c1NC(=O)N(C)C[C@@H]1Oc2ccc(NC(=O)Nc3ccc4c(c3)OCO4)cc2CC(=O)N([C@@H](C)CO)C[C@@H]1C the results were Vaccinia stage 16.2 and Vaccinia stage Venus 9.4.
COc1ccc(S(=O)(=O)N(C)C[C@@H]2Oc3ccc(NC(=O)Nc4ccc(C(F)(F)F)cc4)cc3C(=O)N([C@@H](C)CO)C[C@@H]2C)cc1 was read as Vaccinia stage inconclusive.
For C[C@@H]1CN([C@H](C)CO)C(=O)c2cc(NC(=O)CCN3CCOCC3)ccc2O[C@H]1CN(C)C(=O)Nc1cccc2ccccc12 the results were Vaccinia stage 14.1 and Vaccinia stage Venus 18.9.
Screening C[C@@H]1CN([C@@H](C)CO)C(=O)Cc2cc(NS(=O)(=O)c3ccc(F)cc3)ccc2O[C@H]1CN(C)C(=O)Nc1ccc(C(F)(F)F)cc1 returned Vaccinia stage -18.1 and Vaccinia stage Venus -6.3.
Screening C[C@@H]1CN([C@H](C)CO)C(=O)c2cc(-c3cccc(F)c3)cnc2O[C@@H]1CN(C)Cc1cncnc1 returned Vaccinia stage 10.1 and Vaccinia stage Venus -1.0.
`CCNC(=O)Nc1ccc2c(c1)C(=O)N(C)[C@@H]1CC[C@H](CC(=O)NCCOC)O[C@H]1CO2` gave Vaccinia stage 5.5 and Vaccinia stage Venus 10.2.
C/C=C/c1ccc([C@@H]2[C@@H](CNC(=O)C3CC3)N(C(=O)CC)[C@H]2CO)cc1 was read as Vaccinia stage -1.7 and Vaccinia stage Venus 4.5.
Screening C[C@@H]1CN([C@@H](C)CO)C(=O)c2cccc(NC(=O)c3ccc(-c4nccs4)cc3)c2O[C@@H]1CN(C)C(=O)Nc1ccc(C(F)(F)F)cc1 returned Vaccinia stage inconclusive.
Screening COc1cccc(NC(=O)Nc2ccc3c(c2)C(=O)N(C)C[C@@H](OC)[C@@H](C)CN(C)[C@@H](C)CO3)c1 returned Vaccinia stage -3.3 and Vaccinia stage Venus -1.7.
For O=C(C[C@@H]1C[C@@H]2c3cc(NC(=O)C4CCOCC4)ccc3O[C@@H]2[C@H](CO)O1)NCc1cc(F)ccc1F the results were Vaccinia stage 5.4 and Vaccinia stage Venus 0.6.
For COc1cccc(S(=O)(=O)Nc2ccc3c(c2)[C@@H]2C[C@H](CC(=O)N4CCCCC4)O[C@H](CO)[C@@H]2O3)c1 the results were Vaccinia stage 6.4 and Vaccinia stage Venus 12.6.
For C[C@H]1CN([C@@H](C)CO)C(=O)Cc2cc(NC(=O)CCC(F)(F)F)ccc2O[C@H]1CN(C)S(C)(=O)=O the results were Vaccinia stage 36.9 and Vaccinia stage Venus 14.0.
For COc1ccc(CN2[C@@H]3CN(C(=O)CC(F)(F)F)c4ccccc4[C@@H]3[C@@H]2CO)cc1 the results were Vaccinia stage -16.7 and Vaccinia stage Venus -9.9.
`COc1ccc(NC(=O)N(C)C[C@H]2OCc3ccccc3-c3c(n(C)c4ccccc34)C(=O)N([C@@H](C)CO)C[C@@H]2C)c(OC)c1` gave Vaccinia stage inconclusive.
For Cc1noc(C)c1NC(=O)N(C)C[C@@H]1Oc2c(NC(=O)Nc3cccc4ccccc34)cccc2C(=O)N([C@@H](C)CO)C[C@@H]1C the results were Vaccinia stage 6.9 and Vaccinia stage Venus 6.9.
Screening C[C@H]1CN([C@@H](C)CO)C(=O)Cc2cc(NC(=O)CCN3CCOCC3)ccc2O[C@@H]1CN(C)Cc1ccc2c(c1)OCO2 returned Vaccinia stage 11.4 and Vaccinia stage Venus 7.4.
For CCNC(=O)C[C@H]1CC[C@@H]2[C@@H](COc3ccc(NS(=O)(=O)c4ccccc4C)cc3C(=O)N2C)O1 the results were Vaccinia stage 5.4 and Vaccinia stage Venus 3.6.
Screening CO[C@@H]1CN(C)C(=O)c2cc(NS(C)(=O)=O)ccc2OC[C@@H](C)N(C(=O)c2ccc3c(c2)OCO3)C[C@H]1C returned Vaccinia stage 15.5 and Vaccinia stage Venus 5.7.
Screening C[C@@H]1CN([C@H](C)CO)C(=O)Cc2cc(NC(=O)CCCCCC(=O)Nc3ccccc3N)ccc2O[C@H]1CN(C)S(=O)(=O)c1ccc(F)cc1 returned Vaccinia stage 7.2 and Vaccinia stage Venus 4.3.
`CC(C)NC(=O)Nc1ccc2c(c1)C(=O)N([C@H](C)CO)C[C@@H](C)[C@H](CN(C)C(=O)Nc1cccc3ccccc13)OCCCC[C@H](C)O2` gave Vaccinia stage 14.8 and Vaccinia stage Venus 10.5.
COCC(=O)N[C@@H]1CC[C@H](CC(=O)NCc2ccccc2OC)O[C@@H]1CO was read as Vaccinia stage -3.3 and Vaccinia stage Venus 8.0.
Cc1ccc(S(=O)(=O)NCC[C@@H]2CC[C@@H](NC(=O)NC(C)C)[C@H](CO)O2)cc1 was read as Vaccinia stage 14.4 and Vaccinia stage Venus 11.9.
O=C(c1cccc(F)c1)N1C[C@@H]2[C@H](c3ccccc31)[C@H](CO)N2C(=O)C1CCCCC1 was read as Vaccinia stage 20.8 and Vaccinia stage Venus 13.7.
C[C@H](CO)N1C[C@H](C)[C@@H](CN(C)C(=O)C2CC2)Oc2cc(C#CC3CC3)ccc2S1(=O)=O was read as Vaccinia stage 8.5 and Vaccinia stage Venus -1.0.
`COc1cccc(-c2ccc3n(c2=O)C[C@@H]2[C@@H](CO)[C@H](C(=O)NC4CCCC4)N[C@H]32)c1` gave Vaccinia stage -0.1 and Vaccinia stage Venus 6.5.
Screening C[C@@H]1CN([C@@H](C)CO)C(=O)CCCn2nncc2CO[C@@H]1CN(C)C(=O)Nc1ccc(-c2cccs2)cc1 returned Vaccinia stage -10.8 and Vaccinia stage Venus -2.3.
`Cc1noc(C)c1NC(=O)N[C@H]1CC[C@@H](CC(=O)NCCCN(C)C)O[C@@H]1CO` gave Vaccinia stage 1.7 and Vaccinia stage Venus 6.6.
For COc1ccc(NC(=O)N(C)C[C@@H]2Oc3c(NC(=O)Nc4c(C)noc4C)cccc3C(=O)N([C@@H](C)CO)C[C@H]2C)cc1 the results were Vaccinia stage 9.7 and Vaccinia stage Venus 5.9.
Screening Cc1cc(C(=O)Nc2cccc3c2O[C@H](CN(C)C(=O)Nc2cccc4ccccc24)[C@H](C)CN([C@H](C)CO)C3=O)n(C)n1 returned Vaccinia stage 4.9 and Vaccinia stage Venus 8.2.
For CO[C@@H]1CN(C)C(=O)c2cc(NC(=O)NC(C)C)ccc2OC[C@@H](C)N(Cc2ccccc2)C[C@@H]1C the results were Vaccinia stage -14.3 and Vaccinia stage Venus -1.2.
Screening C[C@@H]1CCCCO[C@@H](CN(C)Cc2ccccc2)[C@@H](C)CN([C@@H](C)CO)C(=O)c2cc(NC(=O)CCC(F)(F)F)ccc2O1 returned Vaccinia stage -19.7 and Vaccinia stage Venus -14.6.
